TRPML1 blocker: human mucolipin-1 channel inhibition; TRPML1-inducible cells, Ca2+ dye fluorescence, FDSS; stronger effect = lower value; inhibition of EC80 agonist-evoked calcium signal; 390,000 compounds, 0.02% hits; activity change, negative = inhibition, % (no concentration beside the values); in the data active means activity change below about -50%; inconclusive means about -30% to -50%; inactive means above about -30%;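 also: stimulus is agonist 54-4 at its EC80 concentration; % is scaled to controls: 0 for no effect and ±100 for the full control effect; compound concentration not given in the record; the text of the record puts the active cut at -80%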
Target sequence (Q9GZU1 whole entry, looked up): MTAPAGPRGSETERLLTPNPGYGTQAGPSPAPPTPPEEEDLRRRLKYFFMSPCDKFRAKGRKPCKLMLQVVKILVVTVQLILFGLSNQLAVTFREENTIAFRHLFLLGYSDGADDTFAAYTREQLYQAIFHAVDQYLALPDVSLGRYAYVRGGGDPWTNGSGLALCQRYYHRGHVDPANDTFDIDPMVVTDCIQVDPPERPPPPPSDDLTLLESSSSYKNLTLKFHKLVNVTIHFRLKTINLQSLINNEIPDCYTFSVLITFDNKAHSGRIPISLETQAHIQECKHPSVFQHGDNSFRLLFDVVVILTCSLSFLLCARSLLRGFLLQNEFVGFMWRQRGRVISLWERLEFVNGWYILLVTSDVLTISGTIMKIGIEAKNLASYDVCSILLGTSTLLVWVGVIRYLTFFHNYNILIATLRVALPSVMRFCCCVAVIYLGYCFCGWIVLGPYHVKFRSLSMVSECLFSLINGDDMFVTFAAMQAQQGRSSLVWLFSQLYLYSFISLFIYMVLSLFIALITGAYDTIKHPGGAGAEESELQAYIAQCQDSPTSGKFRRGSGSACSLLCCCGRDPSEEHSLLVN
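Calcium fluorescence in TRPML1-DL cells induced overnight with Tet: a 110 s read after compound pin addition, then a 110 s antagonist read after challenge with 54-4 at 4 uM final (EC80).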
Six1-Eya2 inh: inhibitors of human Six1/Eya2 interaction. 360,000 compounds, 0.56% hits. Q15475+O00167. activity change, % (concentration not given with the values). AID 651725. AlphaScreen GST-Six1/His-Eya2 binding, biochemical; stronger effect = lower value; control for the full effect not named in the record; in the data active = activity change below about -65%; inconclusive = about -30% to -65%; inactive = above about -30%; also: % is scaled to controls: 0 for no effect and ±100 for the full control effect
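AlphaScreen with GST-Six1 and His-Eya2 (5X mix: 250 nM and 500 nM), glutathione donor and nickel acceptor beads; buffer 50 mM Tris pH 8.0, 300 mM NaCl, 1 mM TCEP; 1 h at 37 C in the dark.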
PINK1 modulator: modulators of PINK1 expression | PINK1 immunofluorescence, high-content cytometry, 24 h | Potency, µM (series often up to 76.6 µM), inactives show top-dose activation (PINK1 increase), most hits filed as activators | 410,000 compounds, 0.2% hits | AID 624263; active = well fitted activation curve with a large enough effect; inconclusive = small, poorly fitted or top-dose-only effect; inactive = flat fitted curve, though single readings scatter; cell line not stated here;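 also: potency is read from the fitted curve at half-maximal effect; % of control where 0% means no effect; nearly all actives have a fitted effect of over 65% in size; a mitochondrial uncoupler was the plate control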
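Cells are seeded, rested 12 hours, then given compound at five concentrations or DMSO for 24 hours. After fixation, blocking and antibody staining, PINK1 amount and mitochondrial localization are scored; CCCP serves as control.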
D2 ag: agonists of human D2 dopamine receptor (beta-arrestin); P14416; DiscoveRx PathHunter D2 beta-arrestin, luminescence, 90 min; 100% = 57 uM dopamine signal; activation, % (test concentration not listed); 360,000 compounds, 0.084% hits; in the data active = activation above about 40%; inconclusive = about 15% to 40%; inactive = below about 15%; also: compound concentration not given in the record; the text of the record calls up to 30% inactive
Target sequence (P14416 whole entry, looked up): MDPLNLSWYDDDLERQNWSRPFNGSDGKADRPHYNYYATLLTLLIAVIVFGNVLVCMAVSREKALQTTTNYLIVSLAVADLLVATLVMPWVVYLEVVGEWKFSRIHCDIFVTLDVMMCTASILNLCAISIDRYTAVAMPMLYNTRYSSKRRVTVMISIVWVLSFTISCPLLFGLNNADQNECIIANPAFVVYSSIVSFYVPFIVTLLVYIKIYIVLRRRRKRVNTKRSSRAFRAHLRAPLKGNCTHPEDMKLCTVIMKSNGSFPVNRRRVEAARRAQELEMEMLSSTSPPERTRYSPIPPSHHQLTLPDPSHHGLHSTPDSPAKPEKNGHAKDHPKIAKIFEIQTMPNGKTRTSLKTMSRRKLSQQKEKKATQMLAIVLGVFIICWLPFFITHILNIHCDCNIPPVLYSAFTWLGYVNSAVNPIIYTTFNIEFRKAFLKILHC
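DiscoveRx PathHunter D2 beta-arrestin cells (2,100/well) attached overnight, then compound-stimulated 90 min at 37 C in HBSS/10 mM HEPES/0.1% Tween-20 buffer; beta-galactosidase complementation read by luminescence after 1 h at ambient temperature. Dopamine 57 uM final (EC100) as control.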
TRPML1 agonist: human mucolipin-1 channel agonism | activation, % (no concentration beside the values) | AID 624414 | 410,000 compounds, 0.12% hits | Q9GZU1 | TRPML1-expressing cells, Ca2+ dye fluorescence, FDSS; host cell line not named in the record; reference of the full effect not given here; in the data active = activation above about 50%; inconclusive = about 30% to 50%; inactive = below about 30%; also: 0% is about no effect; the text of the record puts the active cut at 80%
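TRPML1-DL cells, Tet-induced overnight (~16 h, 37 degrees C), loaded 45-90 min at room temperature with Ca8 no-wash calcium dye plus quencher. FDSS fluorescence: 10 s baseline, compound pin-transfer, 110 s agonist read, then EC80 54-4 (4uM final) and 110 s antagonist read.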
D2 PAM: positive allosteric modulators of human D2 dopamine receptor; P14416; DiscoveRx D2 beta-arrestin cells, luminescence, 90 min; 100% = 57 uM dopamine signal; potentiation, % (concentration not given with the values); 360,000 compounds, 0.23% hits; AID 624464; active = potentiation of 50% or more; inconclusive = 30% to 50%; inactive = 30% or less;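 also: tested on top of an EC20 dose of dopamine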
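D2 cells co-treated with compound plus 50 nM dopamine (EC20) for 90 min at 37 deg C to detect potentiation. Beta-arrestin recruitment was read as enzyme-fragment luminescence after 1 h at ambient temperature. Full response was set by 57 uM dopamine.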
Starred values were filed as active, the others as inactive; ? = inconclusive; . = no result given; & = joins results of further samples; [ ] = another dose, or the depositor's remark.

smiles | TRPML1 blocker | Six1-Eya2 inh | PINK1 modulator | D2 ag | TRPML1 agonist | D2 PAM
COc1ccc(N2C(=S)NC(C)(C)CC2(C)c2ccc(OC(C)=O)cc2OC(C)=O)cc1 (stereo not given) | 4 | -24 | 2.4% | -2.4 | -0.8 | 2
C#CCOCCOCCOCCNc1nc(N2CCN(C(=O)CCCCCCCCCCNC(=O)[C@H]([C@@H](C)CC)n3cc(CCCCN=C(N)N)nn3)CC2)nc(N2CCN(C(=O)CCCCCCCCCCNC(=O)[C@@H]([C@H](C)O)n3cc(C)nn3)CC2)n1 | -3 | -26 | 0.8% | -0.4 | 0.0 | -12
O=C1CC(NCCc2ccccc2)C(=O)N1CCc1ccccc1 (stereo not given) | -1 | -6 | 1.2% | -5.8 | 0.0 | -1
Cn1c(SCc2nc(-c3ccc(Br)cc3)no2)nnc1-c1ccco1 | -2 | -10 | -3.2%[38.3 µM] | -1.7 | -0.4 | -4
O=S(=O)(NCCc1nnc2ccc(SCc3cccc(Cl)c3)nn12)c1ccccc1 | 43 | . | 2.0% | . | 0.0 | .
C=CCn1c(SCc2ccccc2C#N)nnc1-c1cc(Br)ccc1O | 9 | -29 | -4.2%[38.3 µM] | -4.9 | 3.3 | -10
CCN(CCCNC(=O)c1ccc(Sc2ccc(C)cc2)c(NC(C)=O)c1)c1cccc(C)c1 | 19 | . | -0.2% | . | 0.7 | .
CCN(CC)c1ccc(NS(=O)(=O)c2cc(-c3onc(C)c3C)ccc2OC)c(C)c1 | 23 | . | 3.6% | . | 0.5 | .
CC(C)NC(=O)NC(=O)COC(=O)Cc1c(F)cccc1Cl | -17 | -15 | -4.0% | 0.0 | 1.2 | -7
COC(=O)c1ccc(CSc2nc(N3CCOCC3)c3c(c2C#N)CC(C)(C)OC3)o1 | 10 | -3 | -0.4% | -1.3 | -0.4 | 0
O=C(Cc1cccs1)Nc1ccccc1-c1nc2ccccc2[nH]1 | 22 | 7 | 8.0% | -1.1 | 1.2 | 3
N#Cc1ccccc1S(=O)(=O)N1CCN(CC(O)COc2ccccc2F)CC1 (stereo not given) | -2 | 3 | 1.0% | 0.9 | -0.8 | -12
CCC(=O)NCCc1nc2ccccc2[nH]1 | 0 | 4 | . | 1.2 | 0.9 | 4
O=C(c1ccccc1)C(Nc1ccccn1)c1ccccc1 (stereo not given) | 5 | 19 | -0.2% | -5.3 | 1.1 | -21
CC1(C(=O)N/N=C/c2ccccc2)CC1(Cl)Cl (stereo not given) | 22 | 0 | 1.4% | -3.1 | -1.1 | 2
O=C(O)Cc1ccc(N=Cc2c(O)ccc3ccccc23)cc1 | 1 | 2 | -3.3% | 3.0 | 0.1 | 1
CN(CCC1CCCCO1)C(=O)CCc1nnc(CCc2ccccc2)o1 (stereo not given) | 26 | 5 | -0.7% | 1.3 | 0.4 | 8
CC(C)c1ccc(NC(=O)CN2C(=O)COc3ccc(S(=O)(=O)N4CCCCC4)cc32)cc1 | 9 | . | -0.8% | . | 3.3 | .
CC(=O)CCc1c(C)c2cccc(C)c2[nH]c1=O | 6 | -17 | -0.5%[38.3 µM] | 3.2 | -0.8 | -3
Cc1ccc(NC(=O)Cn2c(=O)n(Cc3ccc4c(c3)OCO4)c(=O)c3ccc(C(=O)NC4CCCCC4)cc32)cc1 | -5 | . | 8.5% | . | 1.4 | .
Cn1c(C(=O)NCc2ccc3c(c2)OCO3)cc2sccc21 | -8 | -14 | -3.7%[38.3 µM] | -3.4 | 1.1 | -10
CC(=O)Oc1ccc(-c2ccc(C(=O)OCC(=O)N(C)CC(=O)Nc3ccccc3Cl)cc2)cc1 | 30 | ? | 0.9% | 0.8 | 0.6 | -7
O=[N+]([O-])c1ccc(S(=O)(=O)Nc2ncccn2)cc1 | 12 | -14 | -1.3% | 1.2 | 1.2 | -3
CCCCOC(=O)c1cc(C)nc2ccc(Br)cc12 | 24 | 11 | -0.9%[38.3 µM] | -1.7 | 0.1 | -14
O=C(c1ccc(-c2cccc(Cl)c2)o1)N1CCN(c2ccc([N+](=O)[O-])cc2)CC1 | 13 | 6 | 6.9% | -4.9 | -0.6 | -7
Cc1ccc(C)c(CSc2nc3ncccc3[nH]2)c1 | 18 | . | 1.6% | . | 2.0 | .
COc1ccccc1NS(=O)(=O)c1ccc(C(=O)NCc2ccco2)cc1 | 2 | -1 | -1.4% | -0.4 | -0.7 | -3
Cc1occc1C(=O)NC1CCCc2ccccc21 (stereo not given) | 5 | 2 | -2.0%[38.3 µM] | 1.4 | 1.3 | -6
CCc1cccc(CC)c1NC(=O)Cn1c(=O)c(-c2cc(C)ccc2NC(C)=O)nc2ccccc21 | 3 | . | 1.3% | . | -0.6 | .
CC(=O)c1csc(-c2ccccc2)n1 | 4 | -1 | -1.8% | 0.4 | 0.6 | -1
CC(C(=O)N1CCCCCC1)N(c1ccc(Cl)cc1)S(C)(=O)=O (stereo not given) | 11 | 4 | -0.2% | 1.1 | 0.4 | -3
COc1ccc(NC(=O)CN(C)C(=O)CNC(=O)c2ccc3c(c2)OCO3)cc1 | -6 | -3 | -3.8% | -0.9 | -0.4 | -12
CCOC(=O)C1=C(C)Nc2sc(C(=O)c3ccc(OC)cc3)c(N)c2C1c1ccc(C(=O)OC)cc1 (stereo not given) | 9 | 6 | 8.9% | -4.3 | 7.9 | -6
O=C(N=Nc1c(O)[nH]c2ccccc12)c1ccccc1NS(=O)(=O)c1cccs1 | 7 | ? | 3.3% | -3.0 | 2.6 | -25
CC/C(C)=N\NC(=O)CNC(=O)c1ccc(Cl)cc1Cl | -5 | -2 | 1.5% | 3.7 | -0.7 | -4
COc1cc(-c2nnc(NC(=O)CS(=O)(=O)c3ccc(Cl)cc3)o2)cc(OC)c1OC | -3 | -29 | -0.8% | 0.8 | -0.2 | -12
COc1ccccc1NC(=O)CC1SC(=N)N(c2ccccc2)C1=O (stereo not given) | -18 | -8 | 3.4% | -3.7 | -0.2 | -15
CC(C)c1ccc(/C=N/NC(=O)c2cc(-c3cccc([N+](=O)[O-])c3)n[nH]2)cc1 | 20 | 10 | 7.7% | 3.4 | -0.7 | 1
O=C(NCc1ccccc1Cl)c1cc2c(s1)CS(=O)(=O)C2 | 6 | -1 | 1.0% | -0.4 | -0.3 | -1
O=C(CNc1ccc(Br)cc1)Nc1ccc(S(=O)(=O)N2CCCCC2)cc1 | 3 | -4 | 0.3% | 2.6 | -0.4 | 0
COc1ccc(CNC(=O)C(C#N)c2nc3ccccc3nc2N2CCN(C)CC2)cc1 (stereo not given) | -3 | -6 | -0.2% | -4.9 | 3.1 | 0
CC(NC(=O)c1ccco1)c1nc(-c2ccccc2)no1 (stereo not given) | 7&14 | -4 | -0.3%&0.2% | -2.3 | -0.4&-0.7 | -3
CCc1ccc(NC(=O)N(CCOC)C2CCN(C(C)=O)CC2)cc1 | 8 | 3 | -1.0%[38.3 µM] | -1.5 | 1.3 | -9
COC(=O)c1ccc2c(c1)C(C)(C)C(/C=C/c1ccc(OC)c(OC)c1OC)=[N+]2C | -5 | -1 | -1.9% | -2.0 | 5.1 | -30
CCC(CC)NC(=O)COn1nnc2ccc(S(=O)(=O)N3CCOCC3)cc21 | -2 | -1 | -0.8% | 1.2 | -0.7 | -4
O=C(c1ccccc1)N1CCN(CC(O)Cn2ccc3ccccc32)CC1 (stereo not given) | 33 | -2 | -2.1% | -4.1 | 2.6 | -22
C[n+]1ccccc1Nc1cc([N+](=O)[O-])ccc1N | 15 | 2 | 0.9% | 1.3 | 0.4 | -3
CC(=O)c1sc(NC(=O)CCc2ccccc2)nc1C | 29 | 1 | 2.9% | -2.0 | -0.2 | -16
CCOC(=O)C1=C(C)NC(C)=C(C(=O)OCC)C1C(=O)OCC(=O)NCc1ccc(F)cc1 | -2 | 3 | -0.9% | -2.4 | -0.1 | -2
C=CCc1cccc2cc(NC(C)=O)c(=O)oc12 | -10 | -3 | -1.9% | -1.8 | -1.5 | -4

The listing continues:
smiles | TRPML1 blocker | Six1-Eya2 inh | PINK1 modulator | D2 ag | TRPML1 agonist | D2 PAM
COc1cccc(-c2ccc3c(N)c(C(=O)Nc4ccccc4C)sc3n2)c1 | 8 | . | 0.3% | . | 0.7 | .
Cc1cn2c(N)c(/C=C3\C=Nc4ccccc43)c(=O)nc2s1 | 6 | 8 | -0.7% | -4.5 | 1.5 | -8
C=CCNC(=O)c1oc2ccc(S(=O)(=O)N3CCCCC3)cc2c1C | -13 | 6 | -0.5% | -1.2 | 0.2 | -5
COc1cc(OC)cc(C(=O)NC(=S)Nc2ccc3c4c(cccc24)CC3)c1 | 0 | -17 | ? | -4.1 | -0.4 | -36
O=C(CCS(=O)(=O)c1ccc(Cl)cc1)Nc1nc(-c2ccncc2)cs1 | 2 | -2 | 4.2% | 6.1 | 0.3 | -14
CCn1c(SCc2nc3ccccc3[nH]2)nnc1-c1cnccn1 | 57 | 0 | 1.8%[38.3 µM] | 0.3 | 0.3 | -10
COc1ccc2c(c1)c1c(c(=O)n(Cc3ccccc3)c(=O)n1Cc1ccccc1)n2C | 25 | . | 3.2% | . | 0.1 | .
COc1ccc(OC)c(NC(=S)NCCCN2CCOCC2)c1 | -15 | 7 | -1.4% | -4.9 | 0.2 | -31
Cc1nc(N)nc(-c2ccccc2O)n1 | 0 | -1 | -0.5% | -4.0 | -0.8 | 18
COc1ccc(-c2noc(CN(C)C(=O)c3ccco3)n2)cc1 | 7 | 22 | 1.4% | -1.5 | 0.0 | 2
CCCCn1c(N)c(N(CC(C)C)C(=O)C2=NN(c3cc(C)ccc3C)C(=O)CC2)c(=O)[nH]c1=O | -2 | 6 | -1.7% | -3.7 | -0.2 | -25
Cc1cc(Cl)c(C)c(S(=O)(=O)Oc2ccccc2NC(=O)CCC(=O)O)c1Cl | 9 | 5 | 1.7% | -1.2 | -0.1 | -3
COc1ccc(NS(=O)(=O)c2cc(C)ccc2NC(=O)c2cc(C)oc2C)cc1 | -12 | -16 | 5.0% | -0.3 | 1.2 | 9
CN(C(=S)Nc1ccc(Oc2ccccc2)cc1)c1ccc(O)cc1 | 5 | -5 | -2.1% | ? | -0.2 | 82*
Cc1ccc(SCCC(=O)NCc2ccco2)cc1 | -12 | 0 | -0.3% | -2.9 | -0.2 | -10
CC(=O)Nc1ccc(C2C(=O)c3ccccc3C2=O)cc1 | 16 | -11 | 1.5% | -4.6 | -0.1 | -2
Cc1cc(C)nc(SCCn2c(N(C)Cc3ccccc3)nc3c2c(=O)n(C)c(=O)n3C)n1 | -4 | 0 | -1.0%[38.3 µM] | -2.9 | 0.0 | -12
Brc1ccc2ncnc(NCc3ccco3)c2c1 | 11 | -5 | -1.8% | -0.3 | 0.0 | 19
CCN(CC)CCNC(=O)CCn1c(=S)[nH]c2cc3c(cc2c1=O)OCO3 | -4 | 1 | 1.1%[38.3 µM] | -1.7 | -0.7 | -9
O=C(NCC(c1cccs1)N1CCOCC1)c1cn(-c2ccccc2)nc1-c1ccc(Cl)cc1 (stereo not given) | 4 | 6 | -4.0% | 0.7 | -0.1 | -12
CC(=O)c1ccc(OC2(C)CCN(Cc3ccc4ccccc4c3)C2)cc1 (stereo not given) | 34 | ? | 2.9% | 2.7 | -0.9 | -16
Cn1cnc([N+](=O)[O-])c1SCC(=O)NN | -7 | -4 | 1.1% | 2.4 | -0.1 | -8
